# High-throughput results deposited in PubChem by National Center for Advancing Translational Sciences (NCATS).
# Rango release inh: qHTS Assay for Inhibitors of RanGTP induced Rango (Ran-regulated importin-beta cargo) - Importin beta complex dissociation. Biochemical FRET Rango-importin beta, RanGTP-induced dissociation. Potency, µM (highest dose often 46.1 µM), for inactives: top-dose activity change, negative = inhibition. actives 0.071% (n = 340,000); active means falling FRET ratio curve, often poorly fitted, with flat reads before Ran was added; inconclusive means other falling curves, or compound fluorescence or quenching; inactive means flat or rising ratio curve;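 further: potency means the concentration at half of the fitted maximal effect; % of control where 0% means no effect; nearly all actives have a fitted effect of over 45% in size; -100% = wells without RanGTP and RCC1; the record marks most hits as doubtful in a second field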
#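 Two FRET readings bracket the reaction: one 5 min after compound meets Rango–importin beta, another 45 min after RanGTP-RCC1 (0.6 uM Ran, 0.2 uM RCC1, 2 mM GTP) is added. Only the second defines inhibition.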
# Rango-impB inh: qHTS Assay for Inhibitors of Rango (Ran-regulated importin-beta cargo) - Importin beta complex formation. actives 0.031% (n = 340,000). Rango CFP/YFP FRET sensor + importin beta, 45 min. AID 540263, 2011. Importin subunit beta-1 (Homo sapiens), Q14974. Potency, µM (doses to about 92.2 µM), for the others: top-dose inhibition of complex formation; active = rising FRET ratio curve, often small or poorly fitted; inconclusive = mostly compound fluorescence or quenching in the first reads; inactive = flat curves in all reads;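 further: potency means the concentration at half of the fitted maximal effect; 0% = DMSO wells and 100% = buffer wells lacking importin beta; nearly all actives have a fitted effect of over 15% in size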
#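 FRET biosensor Rango (snurportin 1 IBB between N-terminal EYFP and C-terminal Cerulean), 50 nM in PBS/1 mM DTT/0.02% Tween-20/0.1% BSA, preincubated 5 min RT with compound; 0.125 microM importin beta added, 45 min RT, CFP/YFP FRET ratio read.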
# GLA inh pH 4.5: qHTS Assay for Inhibitors of Human alpha-Galactosidase at pH 4.5; Alpha-galactosidase A (Homo sapiens), P06280; purified enzyme, 4-MU-alpha-Gal fluorescence, pH 4.5; activity change, negative = inhibition, % at 105 µM; 230,000 tested, under 10 active; inconclusive = small, poorly fitted or top-dose-only inhibition, or a rising curve; inactive = flat fitted curve, though single readings scatter; no compound was filed as active;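 further: 0% = full activity with enzyme and -100% = basal without enzyme; dose as in the result columns while the protocol names 77 µM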
# Target sequence (P06280 whole entry, looked up): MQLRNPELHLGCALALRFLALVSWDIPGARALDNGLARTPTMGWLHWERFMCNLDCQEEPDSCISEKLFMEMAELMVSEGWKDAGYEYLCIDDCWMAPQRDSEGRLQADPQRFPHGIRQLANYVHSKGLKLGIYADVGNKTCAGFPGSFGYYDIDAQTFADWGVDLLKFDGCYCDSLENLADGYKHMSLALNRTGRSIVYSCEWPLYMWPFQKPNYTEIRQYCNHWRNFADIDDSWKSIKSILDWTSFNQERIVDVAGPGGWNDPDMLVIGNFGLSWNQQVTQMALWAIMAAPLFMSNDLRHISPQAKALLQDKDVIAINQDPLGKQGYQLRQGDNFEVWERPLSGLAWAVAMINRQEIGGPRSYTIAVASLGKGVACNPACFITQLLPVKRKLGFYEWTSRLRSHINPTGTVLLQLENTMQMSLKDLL
# miR-21 reporter: qHTS Assay for Modulators of miRNAs and/orActivators of miR-21 | HeLa miR-21 FLuc reporter, luciferase, 48 h | Potency, µM (series often up to 38.3 µM), for inactives: top-dose reporter change, positive = more light | 340,000 tested, under 10 active | AID 2288, 2010; active = well fitted rising curve with a large enough effect; inconclusive = small, poorly fitted or top-dose-only effect; inactive = no such curve, though single readings can be large or run the other way;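 further: % of control where 0% means no effect; miR-21 action dims this reporter so a rising signal means less miR-21 action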
#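 HeLa cells stably expressing CMV-driven firefly luciferase with a downstream miR-21 binding sequence, endogenously expressing miR-21, were treated with titrations (up to about 40uM final) for 48 hours at 37 degree Celsius. Luciferase luminescence was read after lysis.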
# Starred values were filed as active, the others as inactive; ? = inconclusive; nt = not tested or not shown; & = joins results of further samples.
SMILES,Rango release inh,Rango-impB inh,GLA inh pH 4.5,miR-21 reporter
Cn1c(C(=O)OC(C(=O)NC2CCCCC2)c2ccccn2)cc2sccc21 (stereo not given),17%,3.4%,0,-1%
Cc1nc(CS(=O)(=O)c2ccccn2)sc1C(=O)NNC(=O)c1ccc(Cl)cc1,7%,1.6%,-10,5%
O=C(c1ccc(F)cc1)N(NC(=O)C(O)(c1ccccc1)c1ccccc1)c1ccccc1,-3%,1.7%,9,10%
Cc1cc(NC(=O)Cc2ccccc2)no1,34%,4.3%,-2,-11%
Cc1ccc(S(=O)(=O)N/N=C/c2ccc(O)c(O)c2)cc1[N+](=O)[O-],18%,2.7%,7,-6%
O=S(=O)(c1cccs1)N1CCN(c2ccccn2)CC1,-19%,-2.0%,-6,-8%
O=C(Cn1cc(C(F)(F)F)ccc1=O)NC1CCCC1,-12%,-0.1%,nt,nt
O=C(CN1C(=O)CSC1=O)Nc1ccc(N2CCOCC2)cc1,6%,-3.6%,-17,-8%
CCOC(=O)c1c(N)sn(-c2ccccc2C)c1=S,0%,-0.9%,1,-19%
COc1cc(/C=N/N(C)C2=NS(=O)(=O)c3ccccc32)cc(OC)c1OC,-17%,?,nt,-5%
CCOc1ccccc1-n1nnnc1SCC(=O)NC(=O)Cc1ccccc1,6%,2.3%,nt,nt
O=[N+]([O-])c1ccc(CSC2=NCCS2)cc1,-2%,1.3%,nt,-34%
COC(=O)C(C(=O)N1CCN(C)CC1)C1CCCCCC1 (stereo not given),7%,0.6%,-3,-1%
COc1ccc(CN(C#N)c2nc(C)cc(C)n2)cc1,14%,0.9%,nt,-17%
CCOc1nc(NC(=O)NS(=O)(=O)Oc2ccccc2Cl)nc(-c2ccccc2)n1,-5%,-1.9%,7,-19%&-14%
COC(=O)/C=C1/SC(=NC(=O)c2ccc(Cl)cc2)NC1=O,9%,-4.5%,nt,nt
Nc1nc2c(nc(N3CCCCC3)n2[C@@H]2O[C@H](CO)[C@@H](O)[C@H]2O)c(=O)[nH]1,-14%,6.1%,nt,1%
COc1ccc(S(=O)(=O)n2cccc2)c(OC)c1,7%,-1.7%,nt,-17%
CCc1ccc(CNC(=O)c2ccc(OC3CCN(C(=O)COC)CC3)cc2)nc1,20%,-4.0%,nt,-5%
COc1ccc(NC(=O)Cn2cccc2)cc1Cl,1%,-2.9%,1,-7%
O=[N+]([O-])c1ccccc1Oc1ccccc1Cl,6%,-1.4%,3,-10%
CCNC(=O)/C(=C/c1ccc2c(c1)OCO2)NC(=O)c1ccc(Br)cc1,-18%,?,6,-9%
Oc1ccc(/C=N/NC(=S)NCCN2CCOCC2)c(O)c1,12%,1.9%,-2,-10%
CCCc1cc(C(=O)NCCc2ccccc2)no1,-14%,-1.7%,6,-61%
C/C(=N\O)c1ccc(Cl)cc1Cl,21%,-0.3%,-5,-1%
O=C(Nc1ccc2c(c1)OCO2)N1CCC(CO)(CC2CCCCO2)CC1 (stereo not given),-5%,2.1%,-9,-36%
COc1ccc2nc(NN=C(C)c3ccccn3)cc(C)c2c1,6%,1.0%,nt,nt
CC(C)Oc1cccc(-c2nnc(SCC(=O)Nc3ccc4c(c3)OCCO4)n2N)c1,1%,-2.1%,3,-6%
CCn1ccnc1CN1CCc2c([nH]c3ccccc23)C1C1CCCCC1 (stereo not given),-6%,-0.7%,-4,19%
Cc1ccc(C)c(N2CCN(C(=O)C3CCN(c4nnc(N5CCCC5=O)s4)CC3)CC2)c1,-20%,1.2%,-1,5%
Cn1c2c(c(=O)[nH]c1=O)C(c1cccc(O)c1)C1=C(N2)c2ccccc2C1=O (stereo not given),-8%,0.0%,-4,6%
COc1ccc2c(COC(=O)CNS(=O)(=O)c3ccc(C)c(C)c3)cc(=O)oc2c1,-16%,?,nt,nt
O=C(C[C@H]1C/C=C\C[C@@H](Cc2ccc(F)cc2)C(=O)OC[C@H]2CCCN2C1=O)N[C@@H](CO)Cc1ccccc1,15%,3.1%,nt,nt
COc1ccc(N2CCN(C(=O)c3ccc(C)cc3Cl)CC2)cc1,25%,5.0%,7,-15%
Cc1cc(/C([O-])=C(/C(=S)Nc2ccccc2)[n+]2ccccc2)c(C)n1-c1ccccc1,-13%,-5.1%,2,-46%
OCC1(Cc2cccc(Cl)c2)CCCN(Cc2ccc(F)c(F)c2)C1 (stereo not given),4%,-0.9%,nt,8%
Cc1nn(CC2CC2)c(=O)n1-c1ccc(Cl)cc1,-1%,-5.4%,5,1%
Nc1ccc(Oc2ccc3nc(-c4ccccc4)c(-c4ccccc4)nc3c2)cc1,-19%,-0.5%,-7,-6%
CCCNC(=O)c1cc2cc([N+](=O)[O-])ccc2s1,1%,2.6%,6,-12%
COc1ccc(C(=O)O)cc1NC(=S)NC(=O)CSc1ccc(Cl)cc1,-5%,5.5%,nt,-8%
O=[N+]([O-])c1ccc(NC(=S)N2CCN(c3ccc(F)cc3)CC2)cc1,26%,-2.7%,3,0%
O=C(CN1CCC(O)(c2ccccc2)CC1)Nc1ccc2c(c1)OCCO2,12%,2.2%,5,2%
CC(NC(=O)CNC(=O)c1sc2ccccc2c1Cl)c1ccc(S(N)(=O)=O)cc1 (stereo not given),-2%,-2.7%,nt,nt
CCCCc1cc(=O)oc2cc(OCC(=O)NCC3CCC(C(=O)O)CC3)ccc12 (stereo not given),-7%,-0.9%,nt,-4%
CC(=O)Nc1ccc(CCc2nc3ccccc3[nH]2)cc1,1%,0.4%,nt,-23%

# Brought forward from above: 5 compounds; new compounds follow.
SMILES,Rango release inh,Rango-impB inh,GLA inh pH 4.5,miR-21 reporter
O=[N+]([O-])c1ccc(NC(=S)N2CCN(c3ccc(F)cc3)CC2)cc1,26%,-2.7%,3,0%
O=C(CN1CCC(O)(c2ccccc2)CC1)Nc1ccc2c(c1)OCCO2,12%,2.2%,5,2%
CC(NC(=O)CNC(=O)c1sc2ccccc2c1Cl)c1ccc(S(N)(=O)=O)cc1 (stereo not given),-2%,-2.7%,nt,nt
CCCCc1cc(=O)oc2cc(OCC(=O)NCC3CCC(C(=O)O)CC3)ccc12 (stereo not given),-7%,-0.9%,nt,-4%
CC(=O)Nc1ccc(CCc2nc3ccccc3[nH]2)cc1,1%,0.4%,nt,-23%
COc1ccc(C(=O)NCc2nnc(SCC(=O)Nc3nnc(C)s3)o2)cc1OC,22%,0.2%,4,2%
CN(CCOc1ccccc1)CC(=O)Nc1cccc(C#N)c1,-11%,0.8%,nt,-2%
Cc1cc(=O)n(Cc2ccccc2)c2ccccc12,33%,2.0%,nt,-19%
COc1ccccc1CNC(=O)COC(=O)c1cc(C)oc1C,-2%,-3.7%,-4,-4%
COc1ccccc1N1C(=O)CC(N2CCN(c3ccc(F)cc3)CC2)C1=O (stereo not given),-4%,0.4%,nt,-5%
Cc1ccc2nc(N3C(=O)C(O)=C(C(=O)c4ccc(C)o4)C3c3ccco3)sc2c1 (stereo not given),?,?,nt,nt
COC(=O)c1cc2c(n(Cc3ccccc3)c1=O)CCCC2=O,-1%,5.5%,nt,nt
CCOc1ccc2[nH]cc(C(=O)O)c(=O)c2c1,-6%,-4.4%,12,-3%
O=C(NCC1CCCO1)c1nn2c(C(F)(F)F)cc(-c3cccs3)nc2c1Cl (stereo not given),3%,3.5%,nt,11%
CC(C)OC(=O)CSc1nc(N)c(C#N)c(-c2ccco2)c1C#N,?,?,-6,-4%
O=C(CN(C1CCCCC1)S(=O)(=O)c1ccc(Cl)cc1)NCc1cccnc1,11%,-5.5%,2,-5%
CN(C)CCCN=Cc1c(-c2ccccc2)[nH]n(-c2nc3ccccc3s2)c1=O,-3%,-2.9%,4,5%
CC(=O)N1c2ccc(S(=O)(=O)NCC3CCC(C(=O)NCc4ccc(C)o4)CC3)cc2CC1C (stereo not given),-1%,3.7%,nt,10%
Cc1ccc(N2CC(C(=O)Nc3c4c(nn3C(C)(C)C)CS(=O)(=O)C4)CC2=O)cc1C (stereo not given),-20%,2.8%,nt,-1%
CCOc1cc(-c2c(C)c(C)nc(N)c2C#N)ccc1O,8%,-1.6%,3,-7%
CCn1cc(C(=O)NC(C)CCc2ccccc2)c(=O)c2cc(S(=O)(=O)N(C)C)ccc21 (stereo not given),-10%,-0.3%,nt,-22%
Cc1c(CCC(=O)O)c(=O)oc2c(C)c(OCc3cc4c(cc3Cl)OCO4)ccc12,1%,1.9%,3,0%
CCCC(C(=O)NC1CCCC1)N(Cc1ccccc1Cl)C(=O)c1snc(C(N)=O)c1N (stereo not given),1%,?,nt,-2%
COc1ccc2[nH]c3c(=O)n(CCN4CCOCC4)cnc3c2c1,-3%,-6.4%,9,-16%
COc1cc(C(=O)Nc2sc(C(=O)N3CCOCC3)c(C)c2C#N)cc(OC)c1OC,-16%,-0.7%,-2,-2%
O=c1oc2ccc(C#CC3(O)CCCCC3)cc2cc1-n1cc(-c2ccccn2)nn1,2%,1.5%,nt,nt
COC1=CC(=O)[C@@]2([C@@H]1O)[C@@H](Cl)C[C@]13C(OC)=C(OC)C(=O)C[C@]21CCN3C,5%,2.1%,nt,nt
CSCCC1NC(=O)N(CC(=O)N2N=C(c3ccc(Cl)cc3)CC2c2ccco2)C1=O (stereo not given),-18%,-1.3%,1,-18%
COc1cc(-c2nnc3n2CCCCC3)cc(OC)c1OC,13%,-1.6%,nt,-1%
O=C(c1ccc(F)cc1F)N(Cc1ccccn1)Cc1ccco1,0%,?,10,1%
O=C(Nc1ccccc1C(=O)NCCCN1CCOCC1)c1ccc(F)cc1F,2%,-2.3%,nt,-1%
O=C1SC(c2ccccc2)=N/C1=C/c1ccco1,-10%,?,4,-2%
Cc1ccc(C)c(OCCC(=O)Nc2cc(S(=O)(=O)N3CCCCC3)ccc2C)c1,-12%,1.1%,nt,nt
CC#CCCCC(=O)Nc1cc(OC)nc(OC)n1,-3%,3.0%,-27,-4%
Cc1cc(C)c2c(=O)n(CC(=O)NC3CCCC3)sc2n1,1%,-2.0%,-1,3%
Cc1ccccc1S(=O)(=O)Cc1ccc(C(=O)N(C)C2CCCCC2)o1,-11%,-0.7%,nt,4%
NC(=O)c1ccc(NC(=O)COC(=O)c2n[nH]c3ccccc23)cc1,0%,-3.3%,nt,nt
O=C1c2ccccc2-c2onc3ccc(Oc4ccccc4)c1c23,-3%,11%,5,-4%
C=CCSc1nc(C)c(CCC(C)C)c(=O)[nH]1,6%,1.2%,3,-3%
CCOc1ccc(/C=N/N2C(C)CCCC2C)cc1OC (stereo not given),13%,1.3%,nt,-3%
CCOC(=O)COn1c(=O)c(=O)n(O)c2ccccc21,0%,-5.4%,0,1%
COc1ccc(CCN(/C=C2\Sc3ccccc3C2=O)C(C)=O)cc1OC,?,?,0,-11%
O=C(NC12CC3CC(CC(C3)C1)C2)c1ccc(S(=O)(=O)N2CCOCC2)cc1,-3%,6.9%,10,-1%
O=C(COc1ccc2ccccc2c1)Nc1ccc2c3c(cccc13)CC2,2%,0.1%,1,-2%
CC(C)CCn1c(=O)[nH]c2ccccc21,30%,2.8%,-10,-8%
COc1cc(C)ccc1OCc1cc(C(=O)N2CCN(C3CCCCC3)CC2)no1,1%,-0.4%,nt,-45%
CN(C)c1ccc(/C=C/C(=O)c2cccc(Br)c2)cc1,?,?,-23,-12%
CCOc1ccccc1OCC(=O)NCCc1ccc(S(N)(=O)=O)cc1,2%,2.4%,-1,0%
N/C(=N\OC(=O)COc1ccc(Cl)cc1Br)c1ccncc1,1%,-0.1%,-2,-63%
Cc1ccc(-c2cc(C(=O)NCCc3ccc(S(N)(=O)=O)cc3)c3ccccc3n2)cc1,-6%,3.9%,4,-1%
CCOC(=O)C1=C(C)NC(C)=C(C(=O)OCC)C1c1ccccn1,-5%,2.0%,2,3%
CN1CCCN(S(=O)(=O)c2ccc(O)c(C(=O)O)c2)CC1,-4%,-0.6%,nt,0%

# Only part of the results is shown (hit frequency here may not be typical).
